Bioassay records as filed in PubChem.
Marburg entry inh: Marburg virus entry inhibition; Marburg virus pseudotyped entry inhibition, cell reporter; control for the full effect not named in the record; about a third of the inactives were read at about 46 µM; Potency, µM (doses to about 37.8 µM), for inactives: top-dose activity change, negative = inhibition, usual class: inhibitors; hit rate 1.8% among 300,000; active = well fitted inhibition curve with a large enough effect; inconclusive = small, poorly fitted or top-dose-only effect, or effect the other way; inactive = flat fitted curve, though single readings scatter; tested in HEK293 cells; about a fifth of its hits are not listed in these tables; also: % is scaled to controls: 0 for no effect and ±100 for the full control effect; luciferase read-out
Cruzain Triton: blocks cruzain activity in presence of Triton detergent. Potency, µM, without a hit: max response, negative = inhibition, usual class: inhibitors. P25779. purified cruzain, Z-FR-AMC fluorescence, 0.01% Triton. hit rate 0.43% among 200,000. AID 1478;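 also: plate controls were neutral wells for no effect and buffer without enzyme for full effect; nearly all actives have a fitted effect of over 40% in size; top concentration of the series not given in the record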
Target sequence (P25779 123-467 limits assumed): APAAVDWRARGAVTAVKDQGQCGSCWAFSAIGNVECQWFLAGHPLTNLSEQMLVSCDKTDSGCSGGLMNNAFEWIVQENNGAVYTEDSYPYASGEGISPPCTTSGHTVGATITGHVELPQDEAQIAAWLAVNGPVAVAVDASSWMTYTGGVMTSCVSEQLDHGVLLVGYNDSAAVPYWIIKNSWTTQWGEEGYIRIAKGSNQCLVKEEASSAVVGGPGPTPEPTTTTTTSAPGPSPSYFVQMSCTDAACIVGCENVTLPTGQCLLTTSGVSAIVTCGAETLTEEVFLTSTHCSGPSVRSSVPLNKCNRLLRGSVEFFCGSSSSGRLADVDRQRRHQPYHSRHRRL
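In this qHTS format, compounds are incubated with 1.5 nM cruzain for 15 min at room temperature before 2 uM Z-FR-AMC is added. Release of AMC is followed at 360/450 nm, and progress is taken as the 60 s fluorescence difference.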
RE007 growth inh: less growth of the S. pombe RE007 Vpr strain. S. pombe RE007 Vpr strain, BacTiter-Glo ATP luminescence, 24 h; control for the full effect not named in the record. Potency, µM (highest dose often 92.2 µM), for inactives: at the highest dose activity change, negative = less growth. hit rate 0.21% among 360,000. AID 651644; active = well fitted falling curve with a large enough effect; inconclusive = small, poorly fitted or top-dose-only effect; inactive = no such curve, though single readings can be large or run the other way;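 also: % is scaled to controls: 0 for no effect and ±100 for the full control effect; nearly all actives have a fitted effect of over 50% in size; the assay follows cell death caused by Vpr and the record does not say whether a fall means rescue or toxicity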
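Fission yeast strain RE007, carrying one chromosomally integrated HIV-1 vpr copy, was seeded at OD 0.01 in PMG+AL medium with 23 nL pinned compound. After 24 h at 30 °C and 99% humidity, viability was read by BacTiter-Glo luminescence.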
Cruzain noTriton: inhibitors of Trypanosoma cruzi cruzain without detergent | P25779 | purified cruzain, Z-FR-AMC fluorescence, no detergent | Potency, µM, without a hit: max response, negative = inhibition, most hits filed as inhibitors | hit rate 2.3% among 200,000;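 also: plate controls were enzyme without inhibitor for no effect and buffer without enzyme for full effect; nearly all actives have a fitted effect of over 40% in size; top concentration of the series not given in the record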
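Detergent-free condition (0.00005% Triton X-100) in acetate buffer pH 5.5 with DTT. 1.5 nM enzyme and compound were pre-mixed 15 min, then 2 uM Z-FR-AMC substrate added; reaction progress from fluorescence change between first and third reads (60 s).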
NS1 inh: influenza NS1 inhibition | S. cerevisiae slowed by influenza A NS1, growth recovery by OD600 | Potency, µM (highest dose often 46.1 µM), without a hit: top-dose activity, positive = more growth | hit rate 0.4% among 270,000; active means well fitted rising curve with a large enough effect; inconclusive means small, poorly fitted or top-dose-only effect; inactive means no such curve, though single readings can be large or run the other way; also: nearly all actives have a fitted effect of over 50% in size
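S. cerevisiae expressing influenza A NS1, grown in glucose, washed, then diluted 1:100 into pH 6.0 -URA galactose medium with 23 nl compound. Growth recovery read as OD600; NS1-free strain serves as control.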
SARS PLP yeast: inhibitors of SARS-CoV papain-like protease in yeast. S. cerevisiae expressing SARS-CoV PLpro, growth rescue; control for the full effect not named in the record. Potency, µM (highest dose often 32.9 µM), inactives show at the highest dose activity, positive = growth rescue. hit rate 0.19% among 330,000. AID 485353; active means well fitted rising curve with a large enough effect; inconclusive means small, poorly fitted or top-dose-only effect; inactive means no such curve, though single readings can be large or run the other way; also: 0% is about no effect; nearly all actives have a fitted effect of over 55% in size; growth read by luminescence after 48 h
Lassa entry inh: inhibitors of Lassa virus binding or cell entry; Lassa virus pseudotype entry inhibition, cell reporter; control for the full effect not named in the record; Potency, µM (series often up to 37.9 µM), without a hit: at the highest dose activity change, negative = inhibition, hits mostly inhibitors; hit rate 1.2% among 300,000; AID 540256; active means well fitted inhibition curve with a large enough effect; inconclusive means small, poorly fitted or top-dose-only effect, or effect the other way; inactive means flat fitted curve, though single readings scatter; tested in HEK293 cells; also: % is scaled to controls: 0 for no effect and ±100 for the full control effect; nearly all actives have a fitted effect of over 50% in size; luciferase read-out
StopGo reporter: lowers the luciferase signal of an FMDV 2A StopGo reporter | human cells with a luciferase reporter of 2A StopGo recoding; control for the full effect not named in the record | Potency, µM (series often up to 57.9 µM), without a hit: at the highest dose signal change, negative = less light | hit rate 1.2% among 410,000 | AID 1159524; active = well fitted falling curve with a large enough effect; inconclusive = small, poorly fitted or top-dose-only effect; inactive = no such curve, though single readings can be large or run the other way; tested in HEK293T cells; also: % is scaled to controls: 0 for no effect and ±100 for the full control effect; nearly all actives have a fitted effect of over 45% in size; luciferase light after 4 h
The depositor's hits bear a star; & = joins results of further samples; [ ] = remark or other dose. Unless noted, calls follow the shape of the dose curve; as a rule, active = well fitted curve in the direction sought with a large enough effect; inconclusive = small, poorly fitted or top-dose-only effect, or another doubt; inactive = no such curve, though single readings can be large; an effect the other way counts as inactive or inconclusive. Potency is read from the fitted curve at half-maximal effect.

For CC(=O)c1cc2c(cc1NC(=O)CSc1nnc(C)s1)OCO2 the results were Marburg entry inh -4%, Cruzain Triton 2.7%, RE007 growth inh 11%, Cruzain noTriton -6%, NS1 inh 0%, SARS PLP yeast 2%, Lassa entry inh 3% and StopGo reporter -10%.
`Cc1ccc(S(=O)(=O)N(CC(=O)NCCSc2ccccn2)c2ccccc2F)cc1` gave Marburg entry inh -1%[46.1 µM], RE007 growth inh -7%, NS1 inh -40%, SARS PLP yeast -7%, Lassa entry inh inconclusive and StopGo reporter -26%.
`Cn1c(O)c(/C=C2/C=CC=N2)c(=O)[nH]c1=O` gave Marburg entry inh -16%[46.1 µM], RE007 growth inh -24%, NS1 inh 3%, SARS PLP yeast -1%, Lassa entry inh inconclusive and StopGo reporter -16%.
For Fc1ccc(-c2nc3nc4ccccc4nc3n2Cc2ccco2)cc1 the results were Marburg entry inh -16%, Cruzain Triton -15%, RE007 growth inh 4%, Cruzain noTriton -2%, NS1 inh -28%, SARS PLP yeast -7%, Lassa entry inh -11% and StopGo reporter 2%.
CC1(C)CC(=O)C(N=Nc2cccnc2)=C(O)C1 was read as Marburg entry inh -18%[46.1 µM], RE007 growth inh 10%, NS1 inh -6%, SARS PLP yeast 1%, Lassa entry inh -19% and StopGo reporter 25%.
Screening Cc1ccc(NC(=O)C(=O)c2cn(CC(=O)N3CCCCC3)c3ccccc23)cc1 returned Marburg entry inh inconclusive, Cruzain Triton -9.4%, RE007 growth inh -4%, Cruzain noTriton -9%, NS1 inh -42%, SARS PLP yeast -2%, Lassa entry inh inconclusive and StopGo reporter 8%.
Screening Cn1c(=O)cc(OCCCC(=O)N2CCCCC2)c2ccccc21 returned Marburg entry inh 2%, Cruzain Triton -3.2%, RE007 growth inh 10%, Cruzain noTriton 13%, NS1 inh -3%, SARS PLP yeast 11%, Lassa entry inh 6% and StopGo reporter 15%.
Screening Cc1ccc2nc(CN3CCN(C(=O)Nc4ccc(C)c(F)c4)CC3)oc2c1 returned Cruzain Triton -5.5%, Cruzain noTriton 17%, Lassa entry inh -1%[46.1 µM] and StopGo reporter -13%.
Cc1ccc(S(=O)(=O)N2CCOC2CNC(=O)C(=O)NCCN(C)C)cc1 (configuration not stated) was read as Marburg entry inh 3%, RE007 growth inh 6%, NS1 inh 5%, SARS PLP yeast inconclusive, Lassa entry inh 12% and StopGo reporter -6%.
Cc1ccsc1/C=N/NC(=O)c1cccnc1 was read as Marburg entry inh inconclusive, RE007 growth inh 7%, NS1 inh 2%, SARS PLP yeast 0%, Lassa entry inh 14%[46.1 µM] and StopGo reporter 9%.
`COc1ccc(OC)c(S(=O)(=O)N2CCCC(C(=O)N3CCCCCC3)C2)c1` (configuration not stated) gave Marburg entry inh -21%, RE007 growth inh -3%, NS1 inh -2%, SARS PLP yeast -5%, Lassa entry inh -7% and StopGo reporter -23%.
CCOC(=O)C1=C(O)C(=O)N(c2ccc(S(N)(=O)=O)cc2)C1c1cccc([N+](=O)[O-])c1 (configuration not stated) was read as Marburg entry inh 9%, RE007 growth inh -7%, NS1 inh -5%, SARS PLP yeast 0%, Lassa entry inh 19% and StopGo reporter 0%.
For O=C(Cc1ccc(Cl)cc1)Nc1ccccc1CO the results were Marburg entry inh -22%[46.1 µM], Cruzain Triton 4.4%, RE007 growth inh 21%, Cruzain noTriton -12%, NS1 inh -1%, SARS PLP yeast -2%, Lassa entry inh 9% and StopGo reporter -13%.
O=C(O)CP(=O)(O)O was read as Marburg entry inh inconclusive, Cruzain Triton -2.6%&-2.5%&3.2%, RE007 growth inh 0%[18.4 µM], Cruzain noTriton 0%&-5%&3%, NS1 inh inconclusive, SARS PLP yeast -2%, Lassa entry inh inconclusive and StopGo reporter -4%.
Cc1cccc(NC(=O)CCC(=O)Nc2nnc(C3CCCCC3)s2)c1 was read as RE007 growth inh 6%, NS1 inh 11%, SARS PLP yeast -1% and StopGo reporter 25%.
CCCSc1nc2cc(S(=O)(=O)N3CCOCC3)ccc2n1CC was read as Marburg entry inh -2%, RE007 growth inh 35%, NS1 inh 1%, SARS PLP yeast -3%, Lassa entry inh 3% and StopGo reporter -21%.
`CCC1CN(C(=O)Nc2cccc(OC)c2)c2ccccc2O1` (configuration not stated) gave Cruzain Triton 3.3%, Cruzain noTriton -25%, Lassa entry inh inconclusive and StopGo reporter -19%.
Screening COc1ccc(CNC(=O)CN2CCC(NC(=O)c3ccc(OC)cc3)CC2)cc1 returned Marburg entry inh 0%[46.1 µM], RE007 growth inh 11%, NS1 inh 0%, SARS PLP yeast 17% and StopGo reporter 9%.
`CCOC(=O)c1ccc(N2Cc3ccccc3C2)cc1O` gave Marburg entry inh -2%, Cruzain Triton 3.1%, RE007 growth inh -4%, Cruzain noTriton inconclusive, NS1 inh 0%, SARS PLP yeast -3% and Lassa entry inh 7%.
Screening O=C(CN1CCC(n2nnc3cc(F)ccc32)CC1)NCCc1ccccc1 returned Marburg entry inh 0%, Cruzain Triton 3.2%, RE007 growth inh -21%, Cruzain noTriton 9%, NS1 inh 8%, SARS PLP yeast 10%, Lassa entry inh 6% and StopGo reporter -4%.
For O=C(CCCn1c(=S)[nH]c2ccccc2c1=O)N1CCCCC1 the results were Marburg entry inh -23%, Cruzain Triton 1.8%, RE007 growth inh 11%, Cruzain noTriton 1%, NS1 inh -6%, SARS PLP yeast 2%, Lassa entry inh 0% and StopGo reporter 0%.
`O=C(CSc1nc(O)cc(=O)[nH]1)N1c2ccccc2Sc2ccccc21` gave Marburg entry inh -17%[46.1 µM], RE007 growth inh -19%, NS1 inh 9%, SARS PLP yeast -1%, Lassa entry inh 2%[46.1 µM] and StopGo reporter 6%.
Screening CCOC(=O)C(C)Sc1ncnc2c1nnn2-c1ccc(F)cc1 (configuration not stated) returned Marburg entry inh -11%, Cruzain Triton -4.3%, RE007 growth inh 7%, Cruzain noTriton 22%, NS1 inh -9%, SARS PLP yeast -4%, Lassa entry inh -16% and StopGo reporter -16%.
Screening O=C(NC1CCC1)C1CCC(=O)N(Cc2ccccc2F)C1 (configuration not stated) returned RE007 growth inh 4%, NS1 inh -1%, SARS PLP yeast 4% and StopGo reporter 17%.
Cc1cc(C(=O)COC(=O)Cn2cnc3c2c(=O)n(C)c(=O)n3C)c(C)n1C was read as Marburg entry inh inconclusive, Cruzain Triton -0.5%, RE007 growth inh 4%, Cruzain noTriton -2%, NS1 inh 4%, SARS PLP yeast 8%, Lassa entry inh 2% and StopGo reporter -3%.
Screening O=c1[nH]nc(SCc2ccccc2Cl)n1-c1ccc2c(c1)OCCO2 returned Marburg entry inh 0%[14.2 µM], RE007 growth inh 1%, NS1 inh -1%, SARS PLP yeast 1%, Lassa entry inh -16% and StopGo reporter -7%.
For CC(=O)Nc1ccc2sccc2c1 the results were Marburg entry inh -7%[46.1 µM], RE007 growth inh -8%, SARS PLP yeast 0%, Lassa entry inh 18% and StopGo reporter 19%.
For S=C(NCCc1ccccc1)N1CCN(Cc2ccccc2)CC1 the results were Marburg entry inh 0%, Cruzain Triton -1.9%, RE007 growth inh 4%, Cruzain noTriton 4%, NS1 inh 10%, SARS PLP yeast -6%, Lassa entry inh 7% and StopGo reporter 0%.
For COC(=O)c1c(N2C(=O)[C@H]3[C@@H](C2=O)[C@]2(C(=O)Nc4c(C)cccc42)N2CCC[C@@H]32)sc(C)c1C the results were Marburg entry inh -11%, Cruzain Triton -15%, RE007 growth inh -19%, Cruzain noTriton inconclusive, NS1 inh inconclusive, SARS PLP yeast 10%, Lassa entry inh -1% and StopGo reporter 0%.
Screening COc1ccc(Cn2c(C(=O)O)c(CNCCc3ccco3)c3ccc(OC)cc32)cc1 returned Cruzain Triton -6.0%, Cruzain noTriton inconclusive, Lassa entry inh 10%[46.1 µM] and StopGo reporter 11%.
CCC(Sc1nnnn1-c1ccccc1)C(=O)Nc1nc2ccccc2s1 (configuration not stated) was read as Marburg entry inh 6%, Cruzain Triton -5.6%, RE007 growth inh -3%, Cruzain noTriton inconclusive, NS1 inh -20%, SARS PLP yeast -19%, Lassa entry inh 1% and StopGo reporter 0%.
For Cc1ccc(S(=O)(=O)c2nc(S(=O)(=O)c3ccccc3)sc2N2CCN(CCO)CC2)cc1 the results were RE007 growth inh -13%, NS1 inh -3%, SARS PLP yeast 4% and StopGo reporter 20%.
For CC1CCc2[nH]c3ccc(C(=O)Nc4ccc(C(=O)N(C)C)cc4)cc3c2C1 (configuration not stated) the results were Marburg entry inh inconclusive, RE007 growth inh 6%, NS1 inh 10%, SARS PLP yeast 2%, Lassa entry inh -17% and StopGo reporter 23%.
For CCOC(=O)C1(Cc2ccccc2Cl)CCN(S(=O)(=O)N(C)C)CC1 the results were Marburg entry inh -11%[46.1 µM], RE007 growth inh -8%, NS1 inh -8%, SARS PLP yeast -1%, Lassa entry inh inconclusive and StopGo reporter inconclusive.
For COCCNC(=O)C1CCC(CNS(=O)(=O)c2ccc3c(c2)CC(C)N3C(C)=O)CC1 (configuration not stated) the results were Cruzain Triton 1.2%, Cruzain noTriton -4%, Lassa entry inh 26%[46.1 µM] and StopGo reporter -3%.
For O=C(CN(Cc1ccco1)C(=O)c1cc(=O)[nH]c2ccccc12)Nc1ccccc1Br the results were Marburg entry inh -1%&-1%, Cruzain Triton -4.2%, RE007 growth inh 2%, Cruzain noTriton -21%, NS1 inh 5%, SARS PLP yeast 6%, Lassa entry inh -1% and StopGo reporter -17%.

A run of entries from the list above:
Cc1cccc(NC(=O)CCC(=O)Nc2nnc(C3CCCCC3)s2)c1 was read as RE007 growth inh 6%, NS1 inh 11%, SARS PLP yeast -1% and StopGo reporter 25%.
CCCSc1nc2cc(S(=O)(=O)N3CCOCC3)ccc2n1CC was read as Marburg entry inh -2%, RE007 growth inh 35%, NS1 inh 1%, SARS PLP yeast -3%, Lassa entry inh 3% and StopGo reporter -21%.

No enrichment for hits, and some 4.7% of all compounds hit somewhere here.
